NPYLR7 agonist: agonists of mosquito NPYLR7 receptor, primary screen, cell-based, Aedes aegypti, calcium fluorescence, mosquito biting behavior; activation, % at 10 µM; 270,000 compounds, 0.15% hits; AID 1259423, 2018; HEK293T NPYLR7/Galpha15, GCaMP6s calcium fluorescence; in the data active = activation above about 40%;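 also: 0% = vehicle and 100% = reference agonist at the receptor; some compounds past the cut are filed as inactive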
NPYLR7 agonist max-min: second read-out of NPYLR7 agonist, no call of its own (marks repeat the call); activation, %; measured here: Max-Min RFU normalised activation; some inactives read as strong as hits;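 span of the calcium signal over five minutes; 0% = vehicle and 100% = native peptide agonist; compound fluorescence can raise it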
* hit, by the source's call; & = joins results of further samples.

SMILES	NPYLR7 agonist	NPYLR7 agonist max-min
CC(=O)O[C@H]1[C@@H]2[C@@H](OC(=O)Cc3ccccc3)[C@@H](C)C[C@]2(OC(C)=O)C(=O)/C(C)=C/[C@H]2[C@H](CC[C@@]13CO3)C2(C)C	8	0
O=S(=O)(c1ccccc1F)N1CCN(CCOC(c2ccccc2)c2ccccc2)CC1	23	33
CCOC(=O)[C@@H]1[C@H]2c3ccccc3N(CC(=O)N(C)C)C(=O)[C@H]2N(C(=O)COC)[C@@H]1c1ccccc1	2	8
CC(C)N(CCC(N)=O)C(=O)C1C(C)(C)C1(C)C	3	2
CCNc1ncc(C(=O)N2CCC3(CC2)C(=O)NCCN3C)cn1	5	2
Cc1noc(CCN)n1	-3	5
O=C1c2ccccc2C(=O)N1CN1CCN(c2ccccc2)CC1	0	-3
Cc1cc(C(=O)NP(=O)(N2CCOCC2)N2CCOCC2)c(C)n1C1CC1	-1	-1
Nc1ccc(CCN2CCN(c3cccc(C(F)(F)F)c3)CC2)cc1	1	5
CN1CCN(c2ccc(N)cc2)CC1	9	7
CCCn1nc2ccccc2c1P(=O)(N1CCOCC1)N1CCOCC1	-5	-12
O=C(N1CCC2(CC1)OCCO2)C(F)(F)F	-11	-14
O=S1OCC2C(CO1)C1(Cl)C(Cl)=C(Cl)C2(Cl)C1(Cl)Cl (stereo not given)	-7	-8
Cc1cccc(Cn2cccc(C(=O)Nc3cc(Cl)ccc3C#N)c2=O)c1	13	5
CN(C)C(=O)Oc1ccc(OCc2c[n+]3ccccc3n2C)cc1	-4	-6

Some of the entries above in another layout.
canonical_smiles | NPYLR7 agonist | NPYLR7 agonist max-min
Cc1cccc(Cn2cccc(C(=O)Nc3cc(Cl)ccc3C#N)c2=O)c1 | 13 | 5
CN(C)C(=O)Oc1ccc(OCc2c[n+]3ccccc3n2C)cc1 | -4 | -6

(list continues)
SMILES	NPYLR7 agonist	NPYLR7 agonist max-min
COc1ccc(-n2c(CC(C)C)nc3ccccc3c2=O)cc1	3	-1
COCc1cc(CN2CCCC(C(=O)c3sccc3C)C2)ccc1OC (stereo not given)	0	-3
O=C(CN1CC=C(c2ccccc2)CC1)Nc1cccc(S(=O)(=O)NC2=NCCC2)c1	1	-3
Cc1cccn2cc(CC(=O)N3CCN(CC(C)O)CC3)nc12 (stereo not given)	10	8
Cc1cc(CC(C)NCC(=O)Nc2cnccn2)n[nH]1 (stereo not given)	2&8	5&5
C=CC[Si]12OCCN(CCO1)CCO2	53	35
CCOC(=O)C1C(=N)Oc2cc(C)n(C)c(=O)c2C12C(=O)N(Cc1cccc(C)c1)c1ccccc12 (stereo not given)	-4	-7
Cc1ccc2c(c1)C1(CCN(CCc3nc(-c4ccccc4)oc3C)CC1)OC(=O)N2	-10	-16
CC(C)(N)C(=O)N1CCC2(CCNCC2)CC1	2	-2
Cc1cccc(-c2ncc(CN3[C@H]4CCNC[C@@H]3CC4)cn2)c1	0	-5
COC(=O)NC(=S)Nc1ccccc1NC(=S)NC(=O)OC	-2	-2
N#CCCN1CN(c2ccc(Cl)cc2)CN=C1N[N+](=O)[O-]	-1	2
COc1ccc(CC(=O)N2CCN(CC(OCc3cccc(C)c3)c3ccc(Cl)cc3)CC2)cc1 (stereo not given)	7	1
CCCN(CCc1c[nH]c2ccc(NC(=O)C=C(C)C)cc12)CC1CC1	9	23
CN1CCC(N(C)c2ccc(N)cc2)CC1	11	1
CC(C)=CCCC(C)CCNCCc1ccco1 (stereo not given)	14	10
O=C1CCCCC1=P(S)(c1ccccc1)N1CCOCC1 (stereo not given)	-1	6
CC(C)Cc1cc(C(=O)N2CCC3(CC2)C(=O)NCCN3C)on1	0	1
Cc1ccc(NP(=O)(OCC(F)(F)F)OCC(F)(F)F)c(C)c1	1	-1
CCOc1cc(C2SCC(=O)Nc3n[nH]c(C)c32)ccc1O (stereo not given)	-5	-18
O=C(c1c(F)cccc1Cl)N1CCN(CCOC(c2ccccc2)c2ccccc2)CC1	18	20
S=P1(OC2CCCCC2)C2=C(N3CCCC3)CCCC2=NN1c1ccccc1 (stereo not given)	6	39
COc1cc(=O)n(-c2ccc(F)cc2)nc1C(=O)N1CCC2(CC1)OCCO2	6	0
Cc1cc(OCC(=O)N2CCN(CCN3CCNC3=O)CC2)ccc1C(C)C	1	-1
COc1cccc(CC(=O)N2CCN(Cc3cccc(-c4noc(-c5cccs5)n4)c3)CC2)c1	4	1
O=C(c1nn(Cc2ccc(S(=O)(=O)N3CCOCC3)cc2)c2ccccc12)N1CCN(CCO)CC1	-2	18
CN1C(=O)C(=Cc2ccc(N(C)C)cc2)C(=O)N(C)C1=O	17	11
CCc1ocnc1C(=O)N1CCC2(CC1)OCC(C)O2 (stereo not given)	4	3
Cc1ccc(C)c(Cn2cccc(C(=O)Nc3ccccc3C#N)c2=O)c1	13	12
O=C(NCc1cnc2ccccc2c1)C1CC2(CCNCC2)CN1 (stereo not given)	21	8
O=S(=O)(c1ccc(F)cc1)N1CCN(CCOC(c2ccccc2)c2ccc(F)c(F)c2)CC1 (stereo not given)	3	-1
COP(=O)(OC)C(NC(=O)C(C)(C)C)=C(Cl)Cl	-4	-5
Cc1ccnn1-c1ccc(C(=O)N2CCC(C(=O)O)(c3ccccc3)CC2)cc1	3	1
Nc1ccc(Oc2ccc(N)cc2)cc1	2	8
Cc1nc2sccn2c1C=C(C#N)C#N	4	1
COc1ccc2cc(-c3[nH]ncc3CNC(C)Cc3cccs3)ccc2c1 (stereo not given)	1&-2	-2&-3
COC(=O)C1C(=N)Oc2cc(C)n(Cc3cccnc3)c(=O)c2C12C(=O)N(C)c1ccccc12 (stereo not given)	-4	-5
C=CCN(C)C[C@H]1CN2CC[C@H]1C[C@@H]2CNC(=O)c1ccc(C(F)(F)F)cc1	-12	-16
CC(N)Cc1c[nH]c2ccc(OCc3cccs3)cc12 (stereo not given)	-20	-23
CN1CCN2CCN(Cc3cnn4cccnc34)CC2C1 (stereo not given)	29	24
CNC(=O)c1ccc(CN2CC=C(c3cnn(C)c3)CC2)o1	-2	-2
CC1CCCC2CCCN(Cc3nc4c(cnn4C)c(=O)[nH]3)C12 (stereo not given)	1	-3
c1ncc(CN2[C@H]3CCNC[C@@H]2CC3)cn1	0	-6
COC(=O)Cc1ccc(C(=O)NP(=O)(N2CCOCC2)N2CCOCC2)n1C	8	3
N#CC1C(=N)Oc2c(c(=O)oc3ccccc23)C1c1cccc(F)c1 (stereo not given)	-2	-7
NCCc1nc2cc(C(F)(F)F)ccc2s1	-1	3
CN(C)c1ccc2c(c1)N=C(c1cccs1)OP2(=S)N1CCCCCC1 (stereo not given)	3	3
CC(Cc1cccnc1)NC1CCN(c2ccc(C(=O)N(C)C)cc2)CC1 (stereo not given)	7	4
COCc1cc(CNC(C)Cc2ccccc2F)n[nH]1 (stereo not given)	1&2	0&-1
O=C(NP(NC(=O)c1ccccc1)C12CC3CC(CC(C3)C1)C2)c1ccccc1	6	-2
CCCCn1c(=O)c(C(=O)NCc2ccccc2Cl)c(O)c2ccccc21	17	11
Cc1nn2cc(CCN)nc2s1	2	1
CCC(C)C(=O)c1c(O)c(C)c2oc3c(C)c(O)c(C(=O)C(C)CC)c(O)c3c2c1O (stereo not given)	-7	-10
CCn1ncc(C(=O)N2C[C@H]3CC[C@@H](C2)N3)c1C	-4	-8
N#CC(C#N)=Cc1ccc(-c2ccc(F)cc2)o1	10	5
O=C(Cc1ccccc1)N1CCN(C(c2ccccc2)c2ccc(Cl)cc2)CC1 (stereo not given)	4	4
O=C(Nc1ccc2[nH]cc(CCN3CCc4ccccc4C3)c2c1)c1ccco1	-12	-1
OC1/C(=C/c2ccccc2Cl)N2CCC1CC2 (stereo not given)	0	-1
CCCCN(C)C(=O)c1nn(Cc2cccc(Oc3ccccc3)c2)c2ccccc12	16	15
CC(=O)NS(=O)(=O)c1ccc(NC(=O)c2cccn(Cc3ccccc3)c2=O)cc1	13	4
(continued)
SMILES	NPYLR7 agonist	NPYLR7 agonist max-min
Cn1nc(C(C)(C)C)c2c1N(CC(=O)NCc1cccnc1)C(=O)CSC2c1cccc(F)c1 (stereo not given)	21	15
CN1[C@@H]2CC(O)C[C@H]1[C@@H]1O[C@@H]12 (stereo not given in full)	-8&-4	-14&-10
Cc1ccnc(CC(C)N(C)Cc2cccnc2NC(=O)C(C)(C)C)c1 (stereo not given)	15	2
CN1C(=O)CN=C(c2ccccc2)c2cc([N+](=O)[O-])ccc21	-3	-9
CCOC(=O)[C@H]1CN(C(=O)N2CCOCC2)[C@]2(C)C(=O)Nc3ccccc3[C@H]12	25	24
CN1CCN2CCN(C(=O)c3cccc(=O)[nH]3)CC2C1=O (stereo not given)	5	3
CCc1c(CN2CCN(CC)CC2)csc1C	15	16
Cc1ccsc1C(=O)C1CCCN(CCCn2cccn2)C1 (stereo not given)	4	2
N#Cc1ccc(Cl)cc1NC(=O)c1cccn(Cc2ccc(Cl)cc2)c1=O	10	4
CC(=O)c1cccc(NC(=O)c2cccn(Cc3c(F)cccc3Cl)c2=O)c1	14	6
CC(C)(C)c1nn(-c2cccc(Cl)c2)c2c1C(c1cccc(F)c1)SCC(=O)N2CC(=O)NCc1ccco1 (stereo not given)	23	9
COc1ccc(NC2=NC(C)(C)CS2)cc1	5	6
CNCCc1ccc(O)c(O)c1	-2	-24
CCOC(=O)[C@H]1CN(C)[C@]2(C)C(=O)N(C)c3ccccc3[C@H]12	0	8
C=CCOC(=O)C1=C(C)OC(=N)C(C#N)C12C(=O)Nc1ccccc12 (stereo not given)	21	20
O=c1cc(CN2CCC3CCCCC3C2)nc2ccc(Br)cn12 (stereo not given)	8	12
COc1ccccc1[C@H]1CN(C(=O)c2sc(C)nc2C)[C@@H]2C3CCN(CC3)[C@H]12	16	15
O=C1C2C(C(=O)N1OCc1ccccc1)C1(Cl)C(Cl)=C(Cl)C2(Cl)C1(Cl)Cl (stereo not given)	-2	1
Cc1c(CC(=O)N2CCN(C(C)C)CC2)cnn1-c1ccccc1	15	7
CCC(C)C(=O)O[C@H]1[C@H](O)C2C(CN3CC(C)CCC3[C@@]2(C)O)C2C[C@]34O[C@]5(O)C(OC(=O)C(C)(O)C(C)O)CC[C@@]3(C)C5C(OC(C)=O)[C@@H](OC(C)=O)C4[C@@]21O (stereo not given in full)	-16	-16
CCOC1CC(N(C)CC(O)COC)C1(C)C (stereo not given)	-3	-2
COc1c(F)c(F)c(CN2CC=C(c3cnn(C)c3)CC2)c(F)c1F	5	44
CCOC(=O)C1(c2ccccc2)CCN(CCC(C#N)(c2ccccc2)c2ccccc2)CC1	-8	-10
NP(=O)(OCC(F)(F)F)Oc1ccc(Cl)cc1 (stereo not given)	9	14
COc1ccc(C2SCC(=O)N(CC(=O)O)c3c2c(-c2ccccc2)nn3-c2ccc(F)cc2)cc1OC (stereo not given)	0	-1
C=CCN1CCc2cccc3c2[C@H]1Cc1ccc(O)c(O)c1-3	-10	-1
CCOc1c(OC)cc(CNCC(O)c2ccc(F)cc2)cc1OC (stereo not given)	7	3
COc1ccc(CC(=O)N2CCN(C(c3ccc(F)cc3)c3ccc(F)cc3)CC2)cc1	-1	4
CCN(CC)S(=O)(=O)c1ccc(Cn2nc(C(=O)NOC)c3ccccc32)cc1	5	19
CN1C(=O)CCS(=O)(=O)C1c1ccc(Cl)cc1 (stereo not given)	-4&-14&-1	-7&-17&-17
O=C(c1ccc2c3c(cccc13)CC2)C1CCCN(C2CCOCC2)C1 (stereo not given)	23	6
[O-][n+]1onc2c1CCC1N(O)CCC21O (stereo not given)	7	3
c1ccc(CCNCc2ccccc2)cc1	-13	-26
Cn1cc(C2=CCN(CCSc3ccccc3)CC2)cn1	-7	-10
CN1CC(=O)N(Cc2ccc(Cn3nc(C(=O)Nc4ccccc4-n4cccc4)c4ccccc43)cc2)c2ccccc2C1=O	-2	-9
Cc1cc2oc(=O)cc(-c3cc4ccccc4o3)c2cc1OC(=O)N(C)C	0	-5
C=CCN(C1=NCCN1)c1c(Cl)cccc1Cl	-1	-28
O=P(NS(=O)(=O)c1ccc(Cl)cc1)(Oc1ccccc1)Oc1ccccc1	3	3
O=c1n(Cl)c(=O)n(Cl)c(=O)n1Cl	-7	3
CCCN(CCC)[C@@H]1CCc2cccc(O)c2C1	-5	-2
CN1C[C@@H](Oc2ccccn2)[C@H]2C[C@@H]1Cc1c2oc2ccccc12	-8	1

Compounds from the list above containing an aryl methoxy group (12):
SMILES	NPYLR7 agonist	NPYLR7 agonist max-min
COc1ccc(-n2c(CC(C)C)nc3ccccc3c2=O)cc1	3	-1
COCc1cc(CN2CCCC(C(=O)c3sccc3C)C2)ccc1OC (stereo not given)	0	-3
COc1ccc(CC(=O)N2CCN(CC(OCc3cccc(C)c3)c3ccc(Cl)cc3)CC2)cc1 (stereo not given)	7	1
COc1cc(=O)n(-c2ccc(F)cc2)nc1C(=O)N1CCC2(CC1)OCCO2	6	0
COc1cccc(CC(=O)N2CCN(Cc3cccc(-c4noc(-c5cccs5)n4)c3)CC2)c1	4	1
COc1ccc2cc(-c3[nH]ncc3CNC(C)Cc3cccs3)ccc2c1 (stereo not given)	1&-2	-2&-3
COc1ccc(NC2=NC(C)(C)CS2)cc1	5	6
COc1ccccc1[C@H]1CN(C(=O)c2sc(C)nc2C)[C@@H]2C3CCN(CC3)[C@H]12	16	15
COc1c(F)c(F)c(CN2CC=C(c3cnn(C)c3)CC2)c(F)c1F	5	44
COc1ccc(C2SCC(=O)N(CC(=O)O)c3c2c(-c2ccccc2)nn3-c2ccc(F)cc2)cc1OC (stereo not given)	0	-1
CCOc1c(OC)cc(CNCC(O)c2ccc(F)cc2)cc1OC (stereo not given)	7	3
COc1ccc(CC(=O)N2CCN(C(c3ccc(F)cc3)c3ccc(F)cc3)CC2)cc1	-1	4

Screening data deposited in PubChem by Fisher Drug Discovery Resource Center.

Not all compounds are listed (hit frequency here may not be typical).
